# KCNQ2 inh = KCNQ2 potassium channel inhibitors, primary screen, cell-based, CHO-K1, FluxOR thallium flux, B-score (AID 2156); hit rate 1.1% among 310,000; O88943; B-score at 10 µM; 20 min; stronger effect = lower value; only compounds with negative scores are shown here; some inactives read as strong as hits;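 active = fluorescence ratio B-score at most minus 3 library SDs, with starting brightness B-score within 2 library SDs, cut at about -5.5 in these data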
# Target sequence (O88943 whole entry, looked up): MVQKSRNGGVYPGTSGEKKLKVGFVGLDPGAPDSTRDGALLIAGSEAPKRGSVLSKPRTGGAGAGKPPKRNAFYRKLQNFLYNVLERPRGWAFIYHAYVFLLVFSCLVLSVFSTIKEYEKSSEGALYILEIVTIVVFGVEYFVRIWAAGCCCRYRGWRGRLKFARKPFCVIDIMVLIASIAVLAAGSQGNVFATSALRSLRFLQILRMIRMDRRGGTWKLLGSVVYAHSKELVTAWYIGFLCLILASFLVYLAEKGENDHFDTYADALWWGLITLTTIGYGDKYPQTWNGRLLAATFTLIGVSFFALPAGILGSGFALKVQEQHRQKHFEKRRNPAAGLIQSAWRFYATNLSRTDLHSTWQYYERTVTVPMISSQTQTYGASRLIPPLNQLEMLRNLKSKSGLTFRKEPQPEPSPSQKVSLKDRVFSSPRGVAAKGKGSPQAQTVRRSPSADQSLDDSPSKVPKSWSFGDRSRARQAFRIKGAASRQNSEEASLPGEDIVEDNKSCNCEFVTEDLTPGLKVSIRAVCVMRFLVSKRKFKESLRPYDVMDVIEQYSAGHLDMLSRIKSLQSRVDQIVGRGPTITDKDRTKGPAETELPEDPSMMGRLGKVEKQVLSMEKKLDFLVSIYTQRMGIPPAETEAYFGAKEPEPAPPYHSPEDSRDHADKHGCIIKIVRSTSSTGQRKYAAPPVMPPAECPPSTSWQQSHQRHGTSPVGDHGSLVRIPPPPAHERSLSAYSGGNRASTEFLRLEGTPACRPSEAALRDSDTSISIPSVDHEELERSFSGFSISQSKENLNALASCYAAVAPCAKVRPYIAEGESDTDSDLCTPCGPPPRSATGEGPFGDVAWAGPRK
# KCNQ2 inh baseline = further read-out of KCNQ2 inh, marked with its call; B-score; measured here: initial fluorescence intensity artifact check;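 brightness before thallium and not channel activity; 0 = typical well and far values either way flag optical interference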
# * = called active by the depositor; i = inactive.
KCNQ2 inh baseline,KCNQ2 inh,SMILES
-0.82,i,CCN(CC)c1ccc(CNc2nc3ccccc3n2C)cc1
-2.5,i,CSc1ccc(NC(N)=S)cc1
0.89,i,COc1cc2ccccc2cc1C(=O)N(CCN(C)C)c1nc2c(F)cccc2s1
-0.81,i,O=C(/C(=C/c1cccnc1)n1ccnc1)c1ccc(Cl)cc1Cl
2,i,CC(C)Cc1nc2ccccc2n1CCc1ccccc1
2.1,i,CCOP(=O)(O)c1cccc(OCCOCCOc2cccc(P(=O)(O)OCC)c2)c1
0.23,i,COc1ccc(NC(=O)c2cc3c(CO)cnc(C)c3oc2=Nc2cc(OC)cc(OC)c2)cc1
0.58,i,CCCCC(O)(CCCC)C(=O)NN(C(=O)OCC)c1ccccc1
-0.42,i,NC(=O)c1nsc(C(=O)N(c2ccc3c(c2)OCO3)C(C(=O)NCC2CCCO2)c2ccc(F)cc2)c1N (stereo not drawn)
1.9,i,CCNc1ccc(C(=O)OCC)cc1NC(=O)c1cccc(N(C)C)c1
0.11,i,Cc1ccc(F)cc1NC(=O)C1CCCN(c2ncccn2)C1 (stereo not drawn)
-1.4,i,CCN(CC(=O)Nc1c(F)cccc1F)C(=O)C1CC(=O)N(c2ccc3c(c2)OCCO3)C1 (stereo not drawn)
-0.71,i,CC(C)(C)C1c2[nH]c3ccccc3c2CCN1Cc1cccc(OCCO)c1 (stereo not drawn)
0.8,i,COc1cccc(-c2noc(C3CCCN(C(=O)c4ccc(F)cc4F)C3)n2)c1 (stereo not drawn)
0.03,i,COCCn1c(SCc2nnc(-c3ccc(OC)c(OC)c3)o2)nnc1-c1ccncc1
-0.44,i,CN1C(=O)NC(NC(=O)c2ccco2)(C(F)(F)F)C1=O (stereo not drawn)
0.05,i,COc1cc(Br)c(-c2sc(Nc3ccccc3)n[n+]2-c2ccc(F)cc2)cc1OC
0.4,i,Cc1cccc(-c2noc(CN(C(=O)c3ccc4c(c3)OCO4)C(C)C)n2)c1
-0.16,i,C[C@H](NC(=O)c1ccccc1Cl)C(=O)OCCOc1ccc(Cl)cc1
0.47,i,CC1CC(=O)NN=C1c1ccc(N)c([N+](=O)[O-])c1 (stereo not drawn)
-0.35,i,Cc1ccc(C)c(OC(C)C(=O)Nc2ccc(S(=O)(=O)Nc3nccs3)cc2)c1 (stereo not drawn)
-0.78,i,Cc1cccc(NC(=S)NC(C)CCc2ccccc2)c1 (stereo not drawn)
28,i,CC1CCN(Cc2c(O)ccc3c2O/C(=C\c2ccco2)C3=O)CC1
0.06,i,O=C(c1ccc(F)cc1)N1CCCN(c2nc(-c3ccccc3)ns2)CC1
0.69,i,Cc1cc(Nc2ccc(Cl)cc2)nc(N2CCOCC2)n1
0.51,i,CCCc1cc(SCC(=O)Nc2c(C)n(C)n(-c3ccccc3)c2=O)n2c(nc3ccccc32)c1C#N
-0.06,i,O=C(CSCCO)N1CCc2ccccc21
1.2,i,O=C(COc1ccc(F)cc1)NCCN1CCCC1
-0.97,i,COc1ccc(NS(=O)(=O)c2cc3c(cc2C)NC(=O)CO3)c(OC)c1
-0.2,i,Cc1cccc(N2CCN(C(=O)c3cc4cc(F)ccc4[nH]3)CC2)c1C
0.21,i,CCn1c(C)cc(O)cc1=O
-3,i,Cc1ccccc1Nc1nc(N)nc(COC(=O)c2cccc(S(=O)(=O)N(C)c3ccccc3)c2)n1
-1.2,i,Cc1onc(-c2ccccc2)c1-c1csc(N/N=C/c2ccccc2Cl)n1
0.46,i,Cc1nc(NCCOc2ccccc2)sc1C(=O)Nc1ccccc1
-1.8,i,CCCCCn1c(N)c(-c2nc3ccccc3o2)c2c([N+](=O)[O-])nn(CC)c(=O)c21
0.79,i,Cc1nc2ccc(C(=O)N3CCN(c4ccccn4)CC3)cc2s1

# Laid out differently: entries from further up
molecule | KCNQ2 inh baseline | KCNQ2 inh
O=C(COc1ccc(F)cc1)NCCN1CCCC1 | 1.2 | i
COc1ccc(NS(=O)(=O)c2cc3c(cc2C)NC(=O)CO3)c(OC)c1 | -0.97 | i

# Additional compounds follow:
KCNQ2 inh baseline,KCNQ2 inh,SMILES
-0.31,i,CC1CC(C)CN(C(=O)C2CCN(S(=O)(=O)c3ccc4c(c3)CC(C)N4C(=O)C3CC3)CC2)C1 (stereo not drawn)
-2.2,i,O=C1CSC(c2ccccc2)N1c1ccc(F)cc1F (stereo not drawn)
-0.04,i,CN1CCN(c2ccccc2NC(=O)c2cccc([N+](=O)[O-])c2)CC1
-1.2,i,COC(=O)c1ccc(N2CCN(S(=O)(=O)c3ccc4ccccc4c3)CC2)c([N+](=O)[O-])c1
-0.98,i,CC(C)(C)c1ccc(NC(=O)c2c(F)cccc2Cl)cc1
1.1,i,O=C(c1cc(COc2cccc(C(F)(F)F)c2)on1)N1CCC(c2ccccc2)CC1
-0.59,i,COC(=O)C(NC(=O)c1ccccc1)c1ccccc1 (stereo not drawn)
-1.5,i,Cc1cc(C)c2oc(-c3cccc(NC(=O)c4ccc(F)cc4)c3)nc2c1
0.29,i,O=C(N1CCCCCC1)N1CCN(S(=O)(=O)c2cccc([N+](=O)[O-])c2)CC1
-0.03,i,COc1ccc(/C=C(\NC(=O)c2cccs2)C(=O)Nc2ccc(C)cc2)cc1OC
-0.43,i,COC(=O)c1cc2sccc2n1CC(=O)Nc1cccc(SC)c1
-0.36,i,CCC(C)n1cnc2c(c1=O)c1nc3ccccc3nc1n2Cc1ccc(OC)cc1 (stereo not drawn)
0.68,i,COc1cc(C)ccc1Oc1ncnc(N)c1[N+](=O)[O-]
0.34,i,O=C(c1cc(-c2ccncc2)nc2ccccc12)N1CCN(c2ccccc2O)CC1
0.56,i,Cc1cc(C)nc(SCC(=O)Nc2ncc(Cc3cccc(Cl)c3)s2)n1
2.3,i,Cc1ccc(C(=O)NCCCNC(=O)c2cccnc2)cc1
-0.43,i,CCOc1ccc(NC(=O)CN(C)C(=O)c2ccc(N3CCCC3)c([N+](=O)[O-])c2)cc1OCC
-0.5,i,CC(C)(C)c1csc(NC(=O)Cn2cnc3ccccc3c2=O)n1
0.31,i,COc1ccc(OC)c(S(=O)(=O)N2CCC(C(=O)NCC3CCCO3)CC2)c1 (stereo not drawn)
0.94,i,Cc1ccc(N=C/C(C(=O)C(F)(F)F)=C(\O)c2cccs2)cc1
-1.6,i,CCC(=O)Nc1cc2c3c(c1)CCC(=O)N3CCC2
0.75,i,NNC(=O)C(=O)Nc1ccc(Cl)c(Cl)c1
-0.69,i,Cc1cc(C)n(-c2nnc(NC(C)(C)C)nn2)n1
-0.35,i,COc1ccccc1N1CCN(C(=O)/C=C/c2cccc([N+](=O)[O-])c2)CC1
0.59,i,COc1ccc(CCN2CC(C(=O)N3CCC(O)(c4ccccc4)CC3)CCC2=O)cc1 (stereo not drawn)
-0.1,i,Cc1n[nH]c(C)c1CCN(C)Cc1cn(C)nc1-c1ccc2c(c1)OCCO2
-0.99,i,COc1ccccc1C1CCN(c2cc(O)ccc2[N+](=O)[O-])CC1
-0.24,i,CCO[C@@H]1OC(C(=O)Nc2ccccc2)=C[C@H](c2ccc3c(c2)OCO3)[C@H]1CCCO
-1.3,i,Cc1cccc(C)c1NC(=O)CN(c1ccccn1)S(=O)(=O)c1ccccc1
2.7,i,COC(=O)[C@@]1(Cc2ccccc2)[C@H]2c3cc(C(=O)N4CCCC4)n(CCSCCO)c3C[C@H]2CN1C(=O)c1ccccc1
0.19,i,Cc1cc(/C=N\NC(=O)c2cccs2)c(C)n1-c1ccc2ncccc2c1
0.66,i,COc1cc(C(=O)NCC2(c3ccccc3)CCCC2)cc(OC)c1OC
-0.07,i,COc1ccc(NCC(=O)Nc2ccc(Br)cc2F)c(OC)c1
-1.3,i,O=[N+]([O-])c1ccc(Oc2ccc(OCc3ccccc3)cc2)nc1
0.94,i,COc1ccccc1NC(=O)CNC(=O)c1ccccc1C
-0.07,i,CCOP(=O)(OCC)C(Nc1cccc([N+](=O)[O-])c1)c1ccc(OC)cc1 (stereo not drawn)

# Given with values under each structure: entries from further up.
# Under each structure – KCNQ2 inh baseline | KCNQ2 inh
O=[N+]([O-])c1ccc(Oc2ccc(OCc3ccccc3)cc2)nc1
  -1.3 | i
Cc1n[nH]c(C)c1CCN(C)Cc1cn(C)nc1-c1ccc2c(c1)OCCO2
  -0.1 | i

# Additional records
KCNQ2 inh baseline,KCNQ2 inh,SMILES
0.06,i,Cc1cc(C)n(-c2ccc(NC(=O)C3CCCCN3C(=O)c3cccs3)cc2)n1 (stereo not drawn)
-0.18,i,CC(=O)c1cccc(N(CC(=O)NC2CCCC2)C(=O)c2ccc(C)s2)c1
-0.17,i,Cc1ccc(-n2c(C)nn(Cc3ccc([N+](=O)[O-])cc3)c2=O)cc1
1.3,i,CC1(c2nnc(Cc3ccccc3)o2)CC(c2c(Cl)cccc2Cl)=NO1 (stereo not drawn)
0.71,i,CC1CCN(C(=O)c2cc(-c3ccc(Cl)c(Cl)c3)on2)CC1
-5.9,i,CNCc1ccccc1Sc1ccc(O)c(O)c1
-0.81,i,CC(=O)c1cccc(CN2CCN(CC=C(C)C)C(CCO)C2)c1 (stereo not drawn)
0.8,i,Cn1ccnc1SCC(=O)c1cccc(C(F)(F)F)c1
0.71,i,N=c1c2c(ncn1CCCO)Oc1c(ccc3ccccc13)C2c1ccccc1 (stereo not drawn)
2.9,i,Cc1[nH]c(=O)[nH]c(=O)c1/C=N/NC(=O)[C@H](C)NC(=O)OC(C)(C)C
0.77,i,Cc1ccc(CC(=O)Nc2cc(C)on2)cc1
1.8,i,Cc1[nH]c(C)c(S(=O)(=O)N2CCN(c3ccccc3)CC2)c1C(=O)N1CCCCC1

# Single records (already shown). Order of screens: KCNQ2 inh baseline	KCNQ2 inh
# COC(=O)C(NC(=O)c1ccccc1)c1ccccc1 (stereo not drawn) in the list: -0.59	i
# CC1CC(C)CN(C(=O)C2CCN(S(=O)(=O)c3ccc4c(c3)CC(C)N4C(=O)C3CC3)CC2)C1 (stereo not drawn) in the list: -0.31	i
# Cc1ccc(C(=O)NCCCNC(=O)c2cccnc2)cc1 in the list: 2.3	i

# Next part:
KCNQ2 inh baseline,KCNQ2 inh,SMILES
0.39,i,CC(c1ccccc1)n1c(-c2ccncc2)n[nH]c1=S (stereo not drawn)
21,i,CCCN1C(=O)S/C(=C/c2ccc(N3CCOCC3)o2)C1=O
7,i,O=S(=O)(NCC1CCCO1)c1cc(Cl)ccc1Br (stereo not drawn)
-0.23,i,CC(=O)c1ccc(N(CC(=O)NC2CCCCC2)C(=O)c2csnn2)cc1
1.9,i,CCOC(=O)CCNC(=O)N1CCCC(C(=O)c2ccccc2SC)C1 (stereo not drawn)
-0.49,i,COc1ccc(OC)c(S(=O)(=O)N2CCN(C(=O)c3ccco3)CC2)c1
0.47,i,Cc1ccc(NC(=O)c2ccc(NCCc3ccccc3)c([N+](=O)[O-])c2)cc1F
-0.11,i,Cc1cccc(OCC(=O)NCc2nc(-c3ccccc3)no2)c1
0.01,i,COC(=O)[C@H](Cc1ccccc1)NC(=O)NCc1ccc(C)cc1
-1.3,i,COc1ccc(CNC(=O)CSc2n[nH]c(N)n2)cc1OC
1.2,i,Cc1cc(NC(=O)c2ccc3c(c2)C(=O)N(Cc2cccnc2)C3=O)no1
-1.2,i,CC(C)n1c(SCC(=O)Nc2ccc(F)cc2)nnc1C1CC1
0.01,i,COc1cccc2c1Oc1ncccc1N(C(=O)CCC(=O)NCc1ccc(C)cc1)C2
-1.2,i,O=C(CN1CCN(S(=O)(=O)c2ccc(F)cc2)CC1)c1ccc(O)c(O)c1
0.53,i,Cc1cc(C)cc(OCCCOc2cccc3cccnc23)c1
-3.2,i,CCc1cccc(NC(=O)CCCn2nc(CC)n3c(cc4occc43)c2=O)c1
-0.78,i,COc1ccc(/C=C/C(=O)O)cc1S(=O)(=O)NCC1CCCO1 (stereo not drawn)
0.62,i,Cc1ccc2c(c1)CCCN2C(=O)CSc1ccccc1
0.25,i,C=CCNC(=O)c1cc(Cl)ccn1
-0.23,i,CC1=Nc2cc(C(=O)O)ccc2Sc2ccc(C)cc21
0.04,i,CCCC/C(O)=C1\C(=O)CCCC1=NCCc1c(C)[nH]c2ccccc12
0.57,i,C/C(N)=C(/C#N)C(=O)CSc1nnc(-c2ccccc2Br)o1
-0.05*,-6*,COc1ccccc1OCC(=O)N/N=C/c1c(O)ccc2ccccc12
0.11,i,CCc1cc2c(=O)c(-c3nc4ccccc4[nH]3)coc2c(CN2CCCCC2)c1O

# Next section, starting with the last 3 of the part before.
KCNQ2 inh baseline,KCNQ2 inh,SMILES
0.57,i,C/C(N)=C(/C#N)C(=O)CSc1nnc(-c2ccccc2Br)o1
-0.05*,-6*,COc1ccccc1OCC(=O)N/N=C/c1c(O)ccc2ccccc12
0.11,i,CCc1cc2c(=O)c(-c3nc4ccccc4[nH]3)coc2c(CN2CCCCC2)c1O
1.4,i,Cn1cccc1CC(=O)N/N=C\c1cccs1
2.4,i,COCCN(Cc1cc2cc3c(cc2nc1Cl)OCO3)C(=O)Nc1ccccc1OC
0.47,i,Cc1ccc(/C=C/C(=O)NC(=S)Nc2ccc(S(=O)(=O)Nc3cc(C)on3)cc2)cc1
0.19,i,O=C(NCc1ccccc1)C1CCCN(S(=O)(=O)c2cccnc2)C1 (stereo not drawn)
2.2,i,CCOC(=O)N/N=C/c1c(C)c(C(=O)c2ccc(F)cc2)n2ccccc12
1.2,i,Cn1c(SCC(=O)c2ccc3c(c2)NC(=O)CO3)nc2ccccc21
-0.54,i,CCC(=O)Nc1cccc(Br)c1
1.1,i,Cc1cc(-c2ccccc2)nc(N/N=C/c2ccc([N+](=O)[O-])cc2)n1
-0.02,i,Oc1ccc(NC(=S)N=Nc2c(O)[nH]c3ccccc23)cc1
-1.1,i,CC(=O)Nc1ccc(S(=O)(=O)N2CCC(c3nnc(-c4ccc(C)cc4)o3)CC2)cc1
0.9*,-6.9*,Cc1ccc2c(C)c(C(=O)N3CCN(Cc4ccc5c(c4)OCO5)CC3)oc2c1C
2.3,i,CCCc1nc(NCc2ccncc2)c2nnn(Cc3ccccc3F)c2n1
0.01,i,CS(=O)(=O)c1ccc(C(=O)N(CCc2ccccc2)Cc2ccccc2)cc1

# A portion of the library; count on the stated rates, not on these rows.
